# Calb FLC = affects C. albicans growth with fluconazole. growth inhibition, % (concentration not given with the values). 0.57% of 300,000 active. C. albicans CaCi-2 (fluconazole-resistant clinical isolate) + fluconazole, Alamar Blue growth, 48 h;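 active means most replicates above 75%; inconclusive means exactly half above 75%; inactive means most below 75%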;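 further: all wells also contain fluconazole at 8 µg/ml as a sub-toxic cotreatment; 0% = median of DMSO wells and 100% = median of geldanamycin control wells; wells of about 8 µL received 7.5 nL stock; the first replicate is given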
# Beta2AR agonist = human beta-2 adrenergic receptor agonism by FAP; P07550; Am2.2-beta2AR cells, FAP receptor internalization, flow cytometry; reference of the scale not given here; response, % (no concentration beside the values); 0.43% of 340,000 active; AID 504454;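 active means response above a set limit, near 3 SD of response in nonfluorescent compounds, cut at about 42% in these data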;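 further: stock transfer was 100 nL into about 11 µL; a reference agonist was the positive control; negative values mostly stem from fluorescent compounds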
# Target sequence (P07550 whole entry, looked up): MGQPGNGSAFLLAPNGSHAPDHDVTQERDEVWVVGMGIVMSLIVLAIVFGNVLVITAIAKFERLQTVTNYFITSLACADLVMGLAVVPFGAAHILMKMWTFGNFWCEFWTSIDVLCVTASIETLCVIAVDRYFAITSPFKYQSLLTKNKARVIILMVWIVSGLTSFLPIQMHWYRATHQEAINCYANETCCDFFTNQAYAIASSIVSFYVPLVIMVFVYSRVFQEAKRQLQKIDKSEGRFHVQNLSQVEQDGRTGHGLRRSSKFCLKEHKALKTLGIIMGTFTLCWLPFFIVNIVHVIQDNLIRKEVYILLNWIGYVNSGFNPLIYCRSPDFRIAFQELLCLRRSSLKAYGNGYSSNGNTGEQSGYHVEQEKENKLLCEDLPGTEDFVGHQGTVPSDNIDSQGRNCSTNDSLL
# UCH37 inh = human UCH37 deubiquitinating enzyme inhibition; Q9Y5K5; purified proteasome/UCH37, Ub-AMC cleavage fluorescence; inhibition, % (no concentration beside the values); 0.33% of 330,000 active; AID 588478;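 active means mean of two replicates above 20%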;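 further: 0% = compound-free wells with enzyme and 100% = wells lacking proteasome; stock transfer was 100 nL into about 20 µL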
# Target sequence (Q9Y5K5 whole entry, looked up): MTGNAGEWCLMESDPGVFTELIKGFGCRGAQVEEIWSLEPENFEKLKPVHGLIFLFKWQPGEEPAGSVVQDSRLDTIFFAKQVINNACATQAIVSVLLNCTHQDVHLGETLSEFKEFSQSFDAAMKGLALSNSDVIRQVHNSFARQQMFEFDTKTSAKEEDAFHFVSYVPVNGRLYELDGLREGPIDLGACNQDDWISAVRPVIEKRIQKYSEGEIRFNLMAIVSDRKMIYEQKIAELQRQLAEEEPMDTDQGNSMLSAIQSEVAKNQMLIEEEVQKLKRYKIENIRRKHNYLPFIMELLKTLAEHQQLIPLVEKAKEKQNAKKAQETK
#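 Material: human UCH37 enzyme supplied as purified proteasome complex / Amount: 0.15 nM proteasome as dispensed / Buffer or medium: pH 7.4 Tris-HCl (50 mM) with ovalbumin, ATP-MgCl2, DTT / Times: preincubation 30 min, reaction 25 min, room temperature / Technique: AMC fluorescence from Ub-AMC cleavage, excitation 355 nm, emission 460 nm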
# RanGTP-Impb inh = inhibitors of RanGTP-importin-beta interaction, primary screen, biochemical, FRET, CFP-Ran, YFP-importin-beta, homogeneous. cell-free CFP-Ran/YFP-importin-beta FRET ratio. AID 2216. 1.1% of 300,000 active. inhibition, % (concentration not given with the values);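 active means most replicates above 15%; inconclusive means exactly half above 15%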;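 further: 0% = DMSO wells and 100% = Ran loaded with GDP instead of GTP; wells of about 40 µL received 100 nL stock; the first replicate is given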
# Bfl-1 A1 inh = inhibitors of the anti-apoptotic protein A1, read as caspase activation. MEF A1-2A-BIM cells, Caspase-Glo 3/7 luminescence, 3 h; percent of clofoctol response, vehicle zero. caspase activation, % (no concentration beside the values). 0.066% of 330,000 active. AID 2462;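 active means over half of replicate activation scores above 10%, or exactly half above 10 with the replicate mean above 10; inconclusive means replicate mean below 10 yet half the replicates above 10; inactive means over half of replicates below 10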;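 further: wells of about 30 µL received 50 nL stock; many hits fall short of the cut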
# T cruzi inh = blocks replication of Trypanosoma cruzi. inhibition, % (concentration not given with the values). 1.4% of 300,000 active. T. cruzi beta-gal in NIH3T3, luminescence, 90 h. AID 1885;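 active means mean inhibition across valid replicates above about 55%, limit read from the data; inconclusive means mean below that limit but half or more replicates reach it; inactive means mean below it, under half of replicates reach it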;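 further: signal also drops with host cell toxicity which is not excluded here; 0% = plate median of DMSO wells and 100% = zero luminescence signal; higher percent means less beta-gal luminescence so fewer parasites; stock transfer was 50 nL into about 50 µL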
# LANA-H2A inh = blocks KSHV LANA binding to histone H2A/H2B | Q9QR71 | cell-free LANA-H2A/H2B peptide, fluorescence polarization | inhibition, % (test concentration not listed) | 0.6% of 320,000 active | AID 2629; in the data active means inhibition mostly above about 10%, no sharp cut-off; inactive means mostly below about 6.7%;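 further: stock transfer was 7.5 nL into about 10 µL; 0% = median of vehicle wells and 100% = median of positive control wells; one replicate is shown; the record names a cut of 25% in any replicate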
# Beta apoptosis = beta cell apoptosis inhibition; protection from apoptosis, % (no concentration beside the values); 0.8% of 300,000 active; INS-1E cytokine-induced death, ATP luminescence, 48 h; percent of positive-control rescue, neutral wells zero;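 active means all replicates at 75% or more, or half of them and the mean; inconclusive means half reach 75% but not the mean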;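 further: 0% = cytokine-treated negative control wells and 100% = positive control rescue; higher means more ATP so stronger rescue from cytokine killing; wells of about 40 µL received 100 nL stock; the first replicate is given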
# * = called active by the depositor; i = inactive; ? = inconclusive; . = not tested or not shown. Rows are unselected, and some 4.3% of all compounds hit somewhere here.
SMILES,Calb FLC,Beta2AR agonist,UCH37 inh,RanGTP-Impb inh,Bfl-1 A1 inh,T cruzi inh,LANA-H2A inh,Beta apoptosis
COc1ccc(Nc2c3c(nc4c(-c5ccccc5)c(C)nn24)CCC3)cc1,-1.4,-2.5,-103.5,1.2,0.9,38.6,-4.8,-1.2
COC(=O)C1C(c2ccc(OC)cc2)C(C(=O)OC)S(=O)(=O)C(CCN2CCCCC2)S1(=O)=O (stereo not given),20.8,12.0,2.4,1.2,0.0,-5.3,1.7,-7.7
CCC(C)(C)n1nnnc1CN1CCN(c2nc3cc(OC)ccc3cc2C#N)CC1,0.1,-0.9,-13.8,1.0,0.9,41.5,-5.6,-3.8
O=C(NCc1cccnc1)c1ccc(COc2ccc(Cl)cc2Cl)o1,?,-3.1,3.3,-3.2,0.4,8.4,-2.0,33.8
O=C(CSc1nc(-c2ccco2)cc(C(F)(F)F)n1)NCc1cccs1,-2.0,-14.9,2.2,?,0.6,11.6,3.1,3.0
O=C1Cc2ccccc2C(=O)N1OCc1ccc(Cl)cc1Cl,?,-3.8,4.6,-2.6,-0.3,-1.5,2.8,-4.4
CCOC(=O)N1CCN(c2cc(N)c([N+](=O)[O-])cc2F)CC1,-5.7,11.1,5.7,-1.1,-0.4,-8.2,-1.0,-3.1
O=C(c1ccc(N2C(=O)C3C4CC(C(Br)C4Br)C3C2=O)cc1)N1CCCCC1 (stereo not given),-8.0,3.6,0.3,3.7,.,12.1,.,.
O=C(Nc1ccc(OCC(=O)N2CCOCC2)cc1)c1cc(F)c(F)cc1Cl,-3.9,2.7,5.0,3.9,0.6,-1.5,2.6,-2.4
COCCN(C(=O)CCC(=O)Nc1ccccn1)C(C(=O)NCCC(C)C)c1ccc(OC)cc1 (stereo not given),-1.0,-6.6,0.8,5.4,-0.3,-4.9,-3.7,-5.7
CC(C)c1ccccc1NC(=S)N1CCN(Cc2ccc3c(c2)OCO3)CC1,-7.6,0.5,-0.1,5.1,-0.1,13.7,10.2,0.3
CN1/C(=C\C=C(/C#N)C(=O)Nc2ccccc2F)C(C)(C)c2ccccc21,-9.2,-55.1,3.2,122.3*,0.5,25.9,-14.9,4.0
OCCC1CN(Cc2cc3c(cc2Cl)OCO3)CCN1C1CCCC1 (stereo not given),-10.6,0.8,0.4,1.4,-0.3,0.2,0.1,7.5
CC(C)(C)c1nc2c(C#N)c(-c3ccc(Cl)cc3)ccn2n1,4.6,3.2,0.6,-0.3,0.8,7.3,-1.2,4.8
CCOC(=O)C1=CC[C@@H](c2cc(OC)c(OC)c(OC)c2)N(S(=O)(=O)c2ccc(C)cc2)[C@H]1C(=O)OCC,.,0.8,3.8,.,-0.2,.,-7.6,-6.4
CN(Cc1cccc2cnccc12)C(=O)c1cc(COc2ccc(F)cc2Cl)on1,11.8,-6.5,3.8,-3.3,1.8,26.0,4.7,17.1
CCCCNC(=O)CNC(=O)c1nn(-c2ccc(OC)cc2)c(=O)c2ccccc12,-3.4,1.8,0.9,1.7,0.8,2.7,1.5,-4.9
CCN(CC)c1ccc(C=NCCc2ccc(S(N)(=O)=O)cc2)cc1,-2.8,8.1,9.1,-2.0,3.5,-6.6,1.3,-2.1
CC1=C(C(=O)OCc2ccccc2)C(c2ccccc2Cl)NC(=O)N1C (stereo not given),-23.7,0.6,6.4,2.5,1.1,-1.8,-3.3,-1.3
CC(=O)Nc1ccc(S(=O)(=O)/N=C2\C(=O)c3ccccc3C([O-])=C2n2cc[n+](-c3ccccn3)c2)cc1,37.8,10.7,56.5*,-1.7,0.2,-8.0,5.5,20.4

# Compound profiles, from the list above. Order of values: Calb FLC, Beta2AR agonist, UCH37 inh, RanGTP-Impb inh, Bfl-1 A1 inh, T cruzi inh, LANA-H2A inh, Beta apoptosis
# CN1/C(=C\C=C(/C#N)C(=O)Nc2ccccc2F)C(C)(C)c2ccccc21 is listed as -9.2, -55.1, 3.2, 122.3*, 0.5, 25.9, -14.9, 4.0
# COc1ccc(Nc2c3c(nc4c(-c5ccccc5)c(C)nn24)CCC3)cc1 is listed as -1.4, -2.5, -103.5, 1.2, 0.9, 38.6, -4.8, -1.2

# (further entries)
SMILES,Calb FLC,Beta2AR agonist,UCH37 inh,RanGTP-Impb inh,Bfl-1 A1 inh,T cruzi inh,LANA-H2A inh,Beta apoptosis
COc1cc2c(cc1OC)CN(C(=O)c1sc(-c3cnccn3)nc1C)CC2,9.6,5.9,5.6,1.6,-0.2,.,-3.6,1.8
Cc1cc(C(=O)CN2C(=O)c3ccccc3S2(=O)=O)c(C)n1CC1CCCO1 (stereo not given),7.4,-4.9,2.7,7.0,0.1,7.3,0.2,-0.6
CCC(C)[C@H](NC(=O)NCCCN1CCOCC1)C(=O)OC (stereo not given in full),1.6,-0.6,4.7,5.2,-0.7,0.4,3.2,2.3
CCOC(=O)c1sc2ccccc2c1OC(=O)c1ccccc1,-5.4,4.9,3.4,-4.2,1.1,-21.0,-2.9,-2.0
CCC(=O)Nc1cccc(NC(=S)NC(=O)c2cccs2)c1,4.8,-9.3,1.1,24.5*,-0.7,-5.6,2.4,-6.5
CCCC(=O)Nc1cccc(NC(=O)c2ccc3c(c2)OCCO3)c1,-5.9,-6.5,2.9,0.9,-2.2,-1.6,-8.3,-1.8
COc1cc(/C=C2/C(=N)N3N=C(C)SC3=NC2=O)ccc1OS(=O)(=O)c1ccc(C)cc1,-0.3,8.7,2.5,2.3,0.6,14.6,0.5,1.7
CC(c1n[nH]c(=S)n1-c1ccc(F)cc1)N1CCCCC1 (stereo not given),17.6,-1.2,4.2,5.7,0.2,-13.4,1.7,-1.7
COC(=O)C1=C(C)NC(=O)NC1c1ccc2c(c1)OCO2 (stereo not given),19.5,-7.9,3.4,4.5,-0.4,-4.1,-7.9,1.4
COc1ccc(-n2cc(CNC(C)c3ccncn3)c(-c3cccc(F)c3)n2)cc1 (stereo not given),18.0,-14.9,-0.1,-0.8,0.9,17.7,0.8,.
O=C(CC1CCCCC1)NCc1ccco1,?,0.7,3.6,0.0,-1.3,-8.1,0.1,-1.9
O=C(O)Cc1ccc(Oc2ncc(C(F)(F)F)cc2Cl)cc1,0.2,-2.2,3.0,-2.9,-0.5,-9.2,1.6,-3.2
Cc1ccc(NC(=O)CN(C)C(=O)Cn2ccsc2=N)cc1,-5.1,2.9,.,0.3,0.9,-17.1,2.7,2.1
NS(=O)(=O)c1ccc(NC(NC(=O)c2cccnc2)C(Cl)(Cl)Cl)cc1 (stereo not given),-2.2,-1.6,0.6,-3.3,0.0,-9.3,2.3,.
O=C(CN1C(=O)c2cccc([N+](=O)[O-])c2C1=O)NCc1ccccc1,0.9,-7.8,3.3,-2.6,-0.3,-5.2,3.0,-8.9
CCOC(=O)c1c(NC(=O)CSC2=NN3CCCC(=O)N=C3S2)sc2c1CCCCC2,0.3,5.0,3.4,3.2,-0.5,-5.6,5.6,2.1
O=C(CSCc1ccccc1Cl)N/N=C/c1ccco1,5.1,-1.6,.,-2.6,0.4,-4.6,1.9,-3.0
CCCN1C(=O)SC(CC(=O)Nc2ccccc2C)C1=O (stereo not given),2.2,2.0,5.8,0.7,-1.3,0.7,2.0,-5.6
COC(=O)CNC(=O)c1ccc(F)cc1,-4.4,2.9,4.8,1.4,0.2,-7.3,2.2,-2.1
C=CCn1c(SCc2ccc(C#N)cc2)nnc1-c1cccc(Cl)c1,21.2,-17.6,5.9,3.6,-0.8,4.7,-2.4,4.8
CCNC(=S)Nc1ccc(N(c2ccccc2)C(C)C)cc1,8.6,0.2,1.4,5.1,0.6,23.7,-7.8,9.2
CCCc1cc(C(=O)Nc2cc(C)on2)no1,2.7,8.8,1.8,?,-1.9,2.2,-3.0,-1.9
Cn1c(=O)[nH]c(=O)c2c1nc(SCCO)n2CCCc1ccccc1,-4.8,5.5,0.6,-0.4,-0.9,-2.6,1.1,4.0
c1ccc(COc2ccc(OCCCCN3CCCCC3)cc2)cc1,-3.9,17.1,5.3,-3.3,0.5,38.1,-1.2,-0.5
O=C(Nc1ccccc1N1CCCC1)C1=COCCO1,.,-0.2,-0.4,.,0.5,.,-0.9,4.3
COC(=O)NC(=C(Cl)Cl)S(=O)(=O)c1ccccc1,.,11.7,4.2,.,0.9,.,-0.1,.
COC(=O)C1CSC2c3ccccc3C(=O)N12 (stereo not given),2.8,5.0,5.8,-0.6,0.5,-13.0,1.9,.
CC1CCN(C(=O)Cn2c3ccccc3c3nc4n(c(=O)c32)CCS4)CC1,90.8*,-9.7,-25.1,2.7,0.0,-9.2,-0.2,4.2
O=C(CSc1nc2ncc(Cl)cc2[nH]1)N1CCC(Cc2ccccc2)CC1,.,0.1,0.9,.,1.3,.,2.9,6.0
Cc1ccc(NC(=O)Cn2nnc(-c3ccccc3-n3cnnn3)n2)c(C)c1,-7.3,-10.8,6.0,0.2,-0.6,4.4,-2.1,-6.0
CCOC(=O)c1[nH]c(C)c(/C(O)=C2\C(=O)C(=O)N(CCCN3CCOCC3)C2c2cccs2)c1C (stereo not given),28.4,-2.4,11.1,2.8,0.9,-26.4,-8.7,4.2
CC1(C)Oc2ccc3ccc(=O)oc3c2[C@@H](O)[C@@H]1O,.,-5.2,5.9,.,0.2,.,1.1,-3.1
Cc1ccc(N(Cc2ccccc2)C(=O)c2cc(S(=O)(=O)N3CCOCC3)ccc2Cl)cc1,1.3,17.1,-0.2,-0.1,0.7,0.4,.,6.1
O=C(CSc1nncs1)Nc1ccc(Cl)cn1,-1.8,2.3,0.5,-1.6,-0.6,-24.4,-9.5,-7.9
CSC(=NCc1ccc(F)cc1)NS(=O)(=O)c1cccs1,-15.1,-7.1,-1.5,4.2,0.9,2.8,0.2,-10.2
CC1(C)CC(=O)CC2(C1)NCC(c1ccccc1)c1c2[nH]c2ccccc12 (stereo not given),2.5,3.6,1.1,?,-0.7,8.6,-6.5,5.6
NC(=O)CC(NC(=O)Cc1ccc(Br)cc1)c1ccc(N2CCC(N3CCCCC3)CC2)c([N+](=O)[O-])c1 (stereo not given),-4.6,0.2,-2.0,-0.6,2.6,-21.8,2.3,-3.0
CCOc1cc(C2C(C(=O)OC(C)C)=C(C)N=C3SCCC(=O)N32)ccc1OC(C)=O (stereo not given),6.1,-11.2,0.5,-1.5,0.1,-16.7,0.0,1.3
Cc1ccc(-n2c(SCC(=O)NCCN3C(=O)CSC3=O)nnc2-c2ccccc2)cc1,-0.4,2.9,4.6,3.0,0.8,9.4,2.7,.
Cc1ccc(OCC(=O)N/N=C\c2ccc(-c3cccc(C(=O)O)c3)o2)c(C)c1,2.9,-1.9,.,0.5,-0.8,-39.4,3.7,0.2
CCC(C)c1ccc(OCC(=O)O)cc1 (stereo not given),-14.3,3.6,-1.3,24.4*,-0.5,-9.3,3.2,-3.0
COc1ccccc1C1CN(c2ccc(F)cc2F)N=C1c1cccs1 (stereo not given),6.4,-4.5,i,-10.1,0.2,6.6,-4.7,4.1
O=C(NCc1cccnc1)c1ccc(S(=O)(=O)Nc2ccccc2)cc1,-4.7,2.2,-1.8,-0.3,2.2,-4.3,-1.8,-4.2
